NOMO-1 viab: NOMO-1 AML cell viability reduction, primary screen, STK33 inhibitor project, CellTiter-Glo luminescence. hit rate 7.5% among 37,000. NOMO-1 AML viability, 72 h. inhibition, % (concentration not given with the values);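 active = most replicates above 80%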;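 also: wells of about 30 µL received 25 nL stock; 0% = median of vehicle wells and 100% = reference inhibitor level; the first replicate is given; inactives centre near 10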
* hit, by the source's call. A portion of the library (hit frequency here may not be typical).

SMILES | NOMO-1 viab
COc1ccc(S(=O)(=O)Nc2cccc3c2O[C@@H](CN(C)C(=O)Nc2ccc(F)cc2)[C@H](C)CN([C@H](C)CO)C3=O)cc1 | 5
Cc1ccc(S(=O)(=O)c2nc(-c3cccs3)oc2NCc2cccnc2)cc1 | 10
COc1cc2c(cc1NC(=O)Cc1ccccc1[N+](=O)[O-])oc1ccccc12 | 51
CCOc1ccccc1NC(=O)CC1NCCNC1=O (stereo unspecified) | -3
C[C@H]1CN([C@@H](C)CO)C(=O)c2cc(NC(=O)Nc3ccc(C(F)(F)F)cc3)ccc2O[C@@H]1CN(C)C(=O)NC1CCCCC1 | -9
O=C(Nc1cccc2ccccc12)C12CC3CC(CC(C3)C1)C2 | 24
C[C@@H]1CN([C@@H](C)CO)C(=O)Cc2cc(NC(=O)Nc3ccccc3)ccc2O[C@@H]1CN(C)S(=O)(=O)c1cn(C)cn1 | -1
O=[N+]([O-])c1ccc(NCCCn2ccnc2)nc1 | -28
C[C@@H]1CN([C@H](C)CO)C(=O)c2cc(NC(=O)Cn3cnnn3)ccc2O[C@H]1CN(C)C(=O)Nc1ccc(F)cc1 | 14
C[C@@H]1CN([C@H](C)CO)C(=O)Cc2cc(NC(=O)Nc3ccc(C(F)(F)F)cc3)ccc2O[C@H]1CN(C)C(=O)Nc1ccccc1 | 52
C=CCn1c(C(C)Oc2ccc(Cl)cc2Cl)n[nH]c1=S (stereo unspecified) | 23
C[C@H]1CN([C@@H](C)CO)C(=O)Cc2cc(NC(=O)Nc3cccc4ccccc34)ccc2O[C@H]1CN(C)C(=O)Nc1ccccc1 | -13
Cc1noc(C)c1NC(=O)Nc1cccc2c1O[C@@H](CN(C)CC1CC1)[C@H](C)CN([C@H](C)CO)C2=O | 7
CC1(C)CC[C@]2(C(=O)O[C@@H]3O[C@H](CO)[C@@H](O)[C@H](O)[C@H]3O)CC[C@]3(C)C(=CCC4[C@@]5(C)CC[C@H](O[C@@H]6OC[C@H](O)[C@H](O)[C@H]6O[C@@H]6O[C@H](CO)[C@@H](O)[C@H](O)[C@H]6O[C@@H]6OC[C@H](O)[C@H](O)[C@H]6O)[C@@](C)(CO)C5CC[C@]43C)C2C1 (stereo partly specified) | -11
COc1ccc(S(=O)(=O)Nc2ccc3c(c2)CC(=O)N([C@@H](C)CO)C[C@H](C)[C@H](CN(C)C(=O)Nc2ccc(C(F)(F)F)cc2)O3)cc1 | -13
Cc1noc(C)c1S(=O)(=O)Nc1ccc2c(c1)C(=O)N([C@@H](C)CO)C[C@@H](C)[C@H](CN(C)C(=O)NC1CCCCC1)O2 | -7
C[C@H]1CN([C@@H](C)CO)C(=O)Cc2cc(NC(=O)C3CC3)ccc2O[C@H]1CN(C)Cc1ccc(C(=O)O)cc1 | 6
CC(C)(C)C1CCc2c(sc(NC(=O)COc3ccccc3Cl)c2C(N)=O)C1 (stereo unspecified) | 104*
CCOc1ccc(N=CNc2ccc(OCC)cc2)cc1 | 15
COc1ccc(NC(=O)Nc2ccc3c(c2)C(=O)N([C@H](C)CO)C[C@@H](C)[C@H](CN(C)S(=O)(=O)c2ccc(F)cc2)O3)cc1 | -18
C[C@@H]1CN([C@H](C)CO)C(=O)c2cc(NS(=O)(=O)c3ccc(F)cc3)ccc2O[C@H]1CN(C)Cc1ccccc1 | 17
CC1CC2(CC(C)(C(=O)CSc3n[nH]c(-c4ccccc4Cl)n3)OC2=O)C(=O)O1 (stereo unspecified) | 20
Cc1cc[n+](Cc2ccccn2)c(N)c1 | 9
C[C@H](CO)N1C[C@H](C)[C@@H](CN(C)S(=O)(=O)c2cccs2)Oc2c(NS(=O)(=O)c3ccc(F)cc3)cccc2C1=O | 9
C[C@@H]1CN([C@@H](C)CO)C(=O)c2cc(NC(=O)Cc3ccccc3)ccc2O[C@@H]1CN(C)C(=O)Nc1ccc(F)cc1 | 13
C[C@@H]1CCCCO[C@@H](CN(C)C(=O)NC2CCCCC2)[C@@H](C)CN([C@H](C)CO)C(=O)c2cc(NS(=O)(=O)c3ccc(Cl)cc3)ccc2O1 | 35
CNC[C@H]1Oc2c(NC(=O)Nc3ccc(F)cc3)cccc2C(=O)N([C@H](C)CO)C[C@H]1C | 0
Cc1ccccc1-n1nnnc1SCC(=O)Nc1cccc(Cl)c1Cl | 5
COc1ccc(C(=O)C(C)Oc2cccc(NC(=O)c3cccc([N+](=O)[O-])c3)c2)cc1 (stereo unspecified) | -9
C[C@H]1CN([C@@H](C)CO)C(=O)c2cccc(NC(=O)Nc3ccc(C(F)(F)F)cc3)c2O[C@@H]1CN(C)C(=O)Nc1ccc(F)cc1 | 36
C[C@@H]1CCCCO[C@@H](CN(C)C(=O)NC2CCCCC2)[C@@H](C)CN([C@H](C)CO)C(=O)c2cc(NC(=O)CCCN(C)C)ccc2O1 | -4
COc1cccc2cc(-c3nnc(SCC(=O)Nc4cccc(SC)c4)n3C)oc12 | 52
COc1ccc(CN(C)C[C@H]2Oc3ccc(NC(=O)NC4CCCCC4)cc3CC(=O)N([C@H](C)CO)C[C@H]2C)cc1 | 2
O=S(=O)(NCc1ccccn1)c1ccc(I)cc1 | 18
COc1ccc(OC)c(S(=O)(=O)Nc2ccc(C(=O)O)cc2)c1 | 17
CCOC(=O)N1CCN(Cc2nc(N)nc(Nc3ccc(Oc4ccccc4)cc3)n2)CC1 | 17
CC(C)NC(=O)N(C)C[C@@H]1Oc2c(NC(=O)Nc3ccc(F)cc3)cccc2C(=O)N([C@@H](C)CO)C[C@@H]1C | 4
COc1ccc(S(=O)(=O)N(C)C[C@@H]2Oc3ccc(NS(C)(=O)=O)cc3C(=O)N([C@@H](C)CO)C[C@H]2C)cc1 | -10
Cc1ccc(S(=O)(=O)NCC(=O)Nc2ccc(Cl)cc2Cl)cc1 | 6
O=C(CSc1nnc(-c2ccc(Cl)cc2)o1)Nc1ccccc1 | 11

Sorted by molar mass (smallest number first): some entries from above
SMILES | NOMO-1 viab
Cc1cc[n+](Cc2ccccn2)c(N)c1 | 9
O=C(CSc1nnc(-c2ccc(Cl)cc2)o1)Nc1ccccc1 | 11
Cc1ccc(S(=O)(=O)NCC(=O)Nc2ccc(Cl)cc2Cl)cc1 | 6
C[C@@H]1CN([C@H](C)CO)C(=O)c2cc(NS(=O)(=O)c3ccc(F)cc3)ccc2O[C@H]1CN(C)Cc1ccccc1 | 17
C[C@@H]1CN([C@@H](C)CO)C(=O)c2cc(NC(=O)Cc3ccccc3)ccc2O[C@@H]1CN(C)C(=O)Nc1ccc(F)cc1 | 13
COc1ccc(CN(C)C[C@H]2Oc3ccc(NC(=O)NC4CCCCC4)cc3CC(=O)N([C@H](C)CO)C[C@H]2C)cc1 | 2
C[C@@H]1CCCCO[C@@H](CN(C)C(=O)NC2CCCCC2)[C@@H](C)CN([C@H](C)CO)C(=O)c2cc(NC(=O)CCCN(C)C)ccc2O1 | -4

Some of the entries so far, as comma-separated lines:
canonical_smiles,NOMO-1 viab
COc1ccc(S(=O)(=O)Nc2ccc3c(c2)CC(=O)N([C@@H](C)CO)C[C@H](C)[C@H](CN(C)C(=O)Nc2ccc(C(F)(F)F)cc2)O3)cc1,-13
COc1cccc2cc(-c3nnc(SCC(=O)Nc4cccc(SC)c4)n3C)oc12,52
COc1ccc(S(=O)(=O)Nc2cccc3c2O[C@@H](CN(C)C(=O)Nc2ccc(F)cc2)[C@H](C)CN([C@H](C)CO)C3=O)cc1,5

Following part
SMILES | NOMO-1 viab
CC(C)NC(=O)N(C)C[C@@H]1Oc2c(NC(=O)C3CCCCC3)cccc2C(=O)N([C@H](C)CO)C[C@H]1C | -11
C[C@H]1CN([C@@H](C)CO)C(=O)c2cccc(NC(=O)C3CCOCC3)c2O[C@@H]1CN(C)Cc1ccc(Oc2ccccc2)cc1 | 42
Cc1ccc(C(C)C)c(OCC(=O)Nc2cccc3ncccc23)c1 | 60
Cc1noc(C)c1S(=O)(=O)Nc1ccc2c(c1)CC(=O)N([C@H](C)CO)C[C@@H](C)[C@@H](CN(C)CC1CC1)O2 | -6
CSc1sc(C(=O)O)c(C)c1S(=O)(=O)c1ccc(Cl)cc1 | -1
COc1ccc(-c2ccc(=N)n(CCCC(=O)O)n2)cc1 | 16
C[C@H](CO)N1C[C@H](C)[C@H](CN(C)Cc2ccc(C(=O)Nc3ccccc3N)cc2)Oc2c(NC(=O)NC3CCCCC3)cccc2C1=O | 120*
C[C@@H]1CN([C@H](C)CO)C(=O)c2cccc(NC(=O)Nc3ccc(F)cc3)c2O[C@H]1CN(C)CC1CC1 | 57
CC(C)NC(=O)Nc1ccc2c(c1)CC(=O)N([C@H](C)CO)C[C@@H](C)[C@H](CN(C)C(=O)Nc1ccc(C(F)(F)F)cc1)O2 | 4
Cc1ccc(S(=O)(=O)Nc2ccc3c(c2)CC(=O)N([C@H](C)CO)C[C@@H](C)[C@@H](CN(C)Cc2ccc4c(c2)OCO4)O3)cc1 | 27
C[C@H]1CN([C@@H](C)CO)C(=O)Cc2cc(NS(=O)(=O)c3cccs3)ccc2O[C@@H]1CN(C)S(=O)(=O)c1ccccc1 | 13
C[C@H](CO)N1C[C@H](C)[C@H](CN(C)CC2CC2)Oc2ccc(NS(=O)(=O)c3ccc(Cl)cc3)cc2C1=O | 9
O=C(COc1ccc([N+](=O)[O-])cc1)Nc1cc(C(F)(F)F)ccc1N1CCOCC1 | 33
CSc1sc(-c2ccn[nH]2)c(-c2ccco2)c1C#N | 28
COc1ccc(S(=O)(=O)N(C)C[C@H]2Oc3ccc(NC(=O)Cc4cn(C)c5ccccc45)cc3CC(=O)N([C@@H](C)CO)C[C@H]2C)cc1 | 24
CN(C(=O)CSc1nnc(N)s1)c1ccccc1 | 7
Cc1ccc(N(C(C)C(=O)Nc2cccc(Cl)c2Cl)S(C)(=O)=O)cc1 (stereo unspecified) | 8
C[C@]12CCC[C@](C)(C(=O)O)C1CCC13C=C(CO)C(CCC12)C3 (stereo partly specified) | 20
Cc1c(Cl)cccc1NC(=O)CN1CCC(C(N)=O)(N2CCCCC2)CC1 | 26
C[C@H](CO)N1C[C@H](C)[C@@H](CN(C)C(=O)Nc2ccccc2)Oc2ccc(NC(=O)Nc3ccc4c(c3)OCO4)cc2C1=O | 5
CNC[C@H]1Oc2ccc(NC(=O)Nc3ccc(F)cc3)cc2C(=O)N([C@@H](C)CO)C[C@H]1C | 28
Cc1ccc(S(=O)(=O)N(C)C[C@H]2Oc3ccc(NC(=O)CCN4CCOCC4)cc3C(=O)N([C@H](C)CO)C[C@H]2C)cc1 | -11
CC(C)=CC(O)C/C(C)=C/COc1ccc2ccc(=O)oc2c1 (stereo unspecified) | -2
COC(=O)c1cc(C)cc(OC)c1C1C(=O)C(=O)c2c(O)cccc2C1=O (stereo unspecified) | 30
C[C@@H]1CCCCO[C@@H](CN(C)Cc2ccc(C(F)(F)F)cc2)[C@@H](C)CN([C@H](C)CO)C(=O)c2cc(NC(=O)c3ccccc3)ccc2O1 | 93*
C[C@H]1CN([C@@H](C)CO)C(=O)c2cc(NS(=O)(=O)c3ccc(F)cc3)ccc2O[C@@H]1CN(C)Cc1ccc(C(=O)Nc2ccccc2N)cc1 | 7
COc1ccc(CN(C)C[C@@H]2Oc3ccc(NS(=O)(=O)c4cn(C)cn4)cc3C(=O)N([C@H](C)CO)C[C@@H]2C)cc1 | -4
O=S(=O)(c1ccc(F)cc1)c1nc(-c2ccccc2Cl)oc1NCc1ccco1 | 22
COc1ccc(CN(C)C[C@H]2Oc3c(NS(=O)(=O)c4cccs4)cccc3C(=O)N([C@H](C)CO)C[C@H]2C)cc1 | 11
C[C@H](CO)N1C[C@H](C)[C@@H](CN(C)C(=O)NC2CCCCC2)Oc2c(NS(=O)(=O)c3cn(C)cn3)cccc2C1=O | 19
C[C@@H]1CN([C@H](C)CO)C(=O)c2cc(NS(=O)(=O)c3ccc(Cl)cc3)ccc2O[C@@H]1CN(C)S(=O)(=O)c1ccc(F)cc1 | 21
C[C@H](CO)N1C[C@H](C)[C@@H](CN(C)C(=O)Nc2ccc3c(c2)OCO3)Oc2c(NS(=O)(=O)c3cccs3)cccc2C1=O | 6
COc1cc(OC)cc(OCC(O)Cn2cnc(-c3ccccc3)c2)c1 (stereo unspecified) | 2
C[C@H]1CN([C@@H](C)CO)C(=O)c2cc(NC(=O)Nc3ccccc3)ccc2O[C@H]1CN(C)C(=O)NC1CCCCC1 | -5
CCn1c(SCC(=O)c2ccc(F)cc2)nnc1-c1cccc([N+](=O)[O-])c1 | 42
COc1ccc(-c2coc3c(OC)c(OC)cc(OC)c3c2=O)cc1 | -2
Cc1cc(Cl)c(C(N)=O)c(C)n1 | -16
CC(C)NC(=O)Nc1cccc2c1O[C@@H](CN(C)S(=O)(=O)c1ccc(F)cc1)[C@H](C)CN([C@H](C)CO)C2=O | 2
C[C@@H]1CN([C@@H](C)CO)C(=O)c2cc(NC(=O)NC3CCCCC3)ccc2O[C@H]1CN(C)C | -2
Cc1ccc(S(=O)(=O)N(C)C[C@@H]2OCCCC[C@@H](C)Oc3ccc(NC(=O)NC(C)C)cc3C(=O)N([C@H](C)CO)C[C@@H]2C)cc1 | 7
C[C@H](CO)N1C[C@H](C)[C@H](CN(C)Cc2ccc(Cl)c(Cl)c2)Oc2ccc(NS(=O)(=O)c3ccccc3)cc2C1=O | 20
C[C@H](CO)N1C[C@H](C)[C@H](CN(C)S(=O)(=O)c2cccs2)Oc2c(NC(=O)Nc3cccc4ccccc34)cccc2C1=O | 36
Cc1nnnn1CC(=O)Nc1cccc([N+](=O)[O-])c1 | 13
COC(=O)c1ccc(C(=O)OC)c(NC(=O)COc2cc(C)c(C)cc2C)c1 | 24
Cc1ccc(S(=O)(=O)N(C)C[C@H]2Oc3ccc(NC(=O)Nc4ccc(F)cc4)cc3C(=O)N([C@H](C)CO)C[C@@H]2C)cc1 | 39

Looked up above.
Reading for Cc1nnnn1CC(=O)Nc1cccc([N+](=O)[O-])c1 under NOMO-1 viab: 13
Reading for C[C@H](CO)N1C[C@H](C)[C@H](CN(C)S(=O)(=O)c2cccs2)Oc2c(NC(=O)Nc3cccc4ccccc34)cccc2C1=O under NOMO-1 viab: 36
